Screens deposited in PubChem by ICCB-Longwood Screening Facility, Harvard Medical School.
GIV-Gai inh: inhibitors of GIV peptide binding to Galpha-i3, primary screen, biochemical, fluorescence polarization, FITC-GIV GBA peptide, rat Galphai3; Guanine nucleotide-binding protein G(i) subunit alpha-3 (Rattus norvegicus), P08753; 90 min; hits give low values; scaled: aluminum fluoride 0%, vehicle 100%; percent of control (FP), % (no concentration beside the values); 210,000 tested, 0.42% active; AID 1224905, 2016;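 active means replicate mean at 85% of control or lower, very high polarization wells dropped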;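 further: wells of about 15 µL received 100 nL stock; the first replicate is given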
Target sequence (P08753 whole entry, looked up): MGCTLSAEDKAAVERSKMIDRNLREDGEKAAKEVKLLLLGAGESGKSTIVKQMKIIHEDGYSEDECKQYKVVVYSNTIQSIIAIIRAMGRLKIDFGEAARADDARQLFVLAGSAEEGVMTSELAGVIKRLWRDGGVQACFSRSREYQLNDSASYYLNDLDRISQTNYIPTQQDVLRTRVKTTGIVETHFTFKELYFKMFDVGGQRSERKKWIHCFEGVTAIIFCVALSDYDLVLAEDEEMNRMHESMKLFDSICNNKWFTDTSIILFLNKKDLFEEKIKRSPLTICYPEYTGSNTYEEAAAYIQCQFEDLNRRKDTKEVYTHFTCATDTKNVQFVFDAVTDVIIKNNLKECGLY
Sa growth inh: S. aureus growth inhibition at 42 and 30 °C, primary screen, LtaS inhibitor project, RN4220, two temperatures. relative growth, % (no concentration beside the values). OD600, 20 h, 42 °C; hits give low values. 170,000 tested, 0.53% active;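 active means growth at 42 °C up to 50% and 20 or more points under that at 30 °C, or under 10% at both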;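 further: 300 nL library stock went into each well; scaled to the means of positive and negative controls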
HCMV NEC inh: inhibitors of HCMV UL50-UL53 interaction, biochemical, HTRF | normalized percent inhibition | AID 1918969, 2023 | 190,000 tested, 0.15% active | HCMV UL50-UL53 nuclear egress complex (human cytomegalovirus) | inhibition, % (no concentration beside the values);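 active means both replicates at 50% or more, plus weaker picks with an unusually low signal ratio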;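 further: stock transfer was 100 nL into about 20 µL; 0% = negative control wells and 100% = wells with untagged competitor protein; inactives centre near -12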
Sa growth inh second temp: second read-out of Sa growth inh, no call of its own (marks repeat the call); relative growth, %; measured here: growth at 30 °C;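 optical density after 20 h as mean of two plates; 100% = untreated growth and lower means inhibition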
Numbers without * were called inactive; . = no result given; & = joins results of further samples.

SMILES	GIV-Gai inh	Sa growth inh	Sa growth inh second temp	HCMV NEC inh
Cc1ccc(Cl)cc1N1CCN(S(=O)(=O)c2cn(C)c(C)n2)CC1	103	85	89	.
Clc1cccc(-c2n[nH]c(-c3ccccc3)n2)c1	107	106	82	36
COc1cccc(NC(=O)COC(=O)c2ccccc2F)c1	.	105	98	5
CCS(=O)(=O)c1ncc(Cl)c(C(=O)Nc2sc3c(c2C(=O)NCCOC)CCCC3)n1	100	.	.	5
O=C(c1cc(N2CCOCC2)c2nc3ccccc3c(=O)n2c1)c1ccccc1O	.	119	80	-29
COCCNS(=O)(=O)Cc1ccc(Cl)cc1	101	109	105	-13
COc1ccc(NC(=O)c2ccc(C)c(NC3=NC4CS(=O)(=O)CC4S3)c2)cc1OC (centres undefined)	103	.	.	-6
COc1cc(NC(=O)c2cccs2)c(C(=O)NCCCn2nc(C)cc2C)cc1OC	.	128	95	15
Cc1ccccc1CNC(=O)CCC(=O)N1CC2CCCN2c2ccccc21 (centres undefined)	98	119	93	.
CC(C)(C)N(N)C(=S)NCc1ccc(F)cc1	.	86	78	-7

Continued, overlapping the part above by two compounds.
SMILES	GIV-Gai inh	Sa growth inh	Sa growth inh second temp	HCMV NEC inh
Cc1ccccc1CNC(=O)CCC(=O)N1CC2CCCN2c2ccccc21 (centres undefined)	98	119	93	.
CC(C)(C)N(N)C(=S)NCc1ccc(F)cc1	.	86	78	-7
CC(C)(C)n1nc2c(c1NC(=O)C1CC1)CSC2	99	98	79	-8
CC1CN(CC(=O)NC(c2ccccc2)c2ccccc2)CC(C)O1 (centres undefined)	.	99	101	-32
Nc1ncnc2nc(Sc3ncnc4ccccc34)[nH]c12	.	97	84	-4
COc1ccc(/C=C/C(=O)Nc2ccccc2)cc1	105	104	90	-22
COc1ccc(-c2cc(OCC(=O)Nc3ccc(Cl)cc3)c3ccccc3n2)cc1	105	.	.	-24
CC(=O)OC[C@H]1O[C@@H](n2cc(Br)c(=O)[nH]c2=O)C[C@@H]1OC(C)=O	113	96	96	-5
COc1ccc2nc(NC(=O)CCc3nc(-c4ccccc4F)no3)sc2c1	98	98	89	6
O=C(O)c1nsnc1NCCO	104	98	92	-20
COc1cc(NC(=O)CSc2ncccc2C(=O)OC(C)C)cc(OC)c1	105	122	88	.
Cc1cc2cc(C(c3nnnn3Cc3ccco3)N3CCN(C(=O)c4ccco4)CC3)c(=O)[nH]c2cc1C (centres undefined)	111	86	85	-6

Not a retest: entries from further up.
SMILES	GIV-Gai inh	Sa growth inh	Sa growth inh second temp	HCMV NEC inh
CC(C)(C)n1nc2c(c1NC(=O)C1CC1)CSC2	99	98	79	-8
CC1CN(CC(=O)NC(c2ccccc2)c2ccccc2)CC(C)O1 (centres undefined)	.	99	101	-32

Later entries.
SMILES	GIV-Gai inh	Sa growth inh	Sa growth inh second temp	HCMV NEC inh
O=S(=O)(/N=C(\Nc1ccncc1)c1ccccc1)c1ccccc1	.	108	98	-5
Cc1nnc(SCC(=O)NC2CCCCC2)n(N)c1=O	.	85	92	-21
FC(F)(F)C1CCCNC1 (centres undefined)	.	103	94	3
Cc1c(C(=O)N(C)c2cccc(C(F)(F)F)c2)sc2nc3n(c(=O)c12)CCCCC3	97	103	110	8
Cc1ccc(-c2ccc(=O)n(CC(=O)N3CCCCC3)n2)cc1	110	95	92	.
Cc1ccc(OCC(=O)Nc2cc3c(cc2SC2CCCCC2)n(C)c(=O)n3C)cc1	107	.	.	-20
O=C(Cc1ccccc1)NC1CCN(S(=O)(=O)c2cccc(F)c2)CC1	104	105	75	-3
CCC1=NN(C(=O)Cc2ccc(OC)c(OC)c2)C(O)(C(F)(F)F)C1 (centres undefined)	106	.	.	-3
CC(C)c1cnc2c(c1SCC(=O)Nc1ccc(C(N)=O)cc1)c(=O)n(C)c(=O)n2C	99	101	87	.
Cc1nnc(NC(=O)C2c3ccccc3Oc3ccccc32)s1	105	95	99	0
O=C(Cn1c(=O)c2cccn2c2ccc(F)cc21)NC1CCN(Cc2ccccc2)CC1	102	.	.	7
Cc1nn(-c2ccccc2)c2sc(C(=O)NCCO)cc12	101	93	67	-19
Cc1cc2c(cc1C)NC(=O)CC(c1ccc(Cl)cc1)=N2	105	.	.	-39
O=C(CSc1ccccc1)Nc1nccs1	.	96	94	-7
Cc1ccc(-c2cc(N3CCC(C(=O)NC4CCCC4)CC3)ncn2)cc1	103	.	.	-14
CC1(C(=O)NC2CCCC2)Cn2c(cc3ccccc32)C(=O)N1CCCN1CCOCC1 (centres undefined)	99	.	.	0
c1ccc(-c2nnsc2-c2ncc[nH]2)cc1	.	90	93	-35
CC1CC(C)CN(c2cnnc3c(Cl)cccc23)C1 (centres undefined)	105	82	82	-92
C(=N\n1cnnc1)/c1c[nH]c2ccccc12	102	106	82	-34
O=C(CSc1nnc(COc2ccccc2)n1Cc1ccco1)Nc1ccc2c(c1)OCO2	111	99	96	-2
CC(C)c1ccccc1NC(=O)COc1ccc2ccc(=O)oc2c1	.	107	90	-17
CC(=O)NCc1ccc(-c2csc(N)n2)o1	.	93	99	-34
O=C(Nc1ccc(F)cc1)NC1CCCCC1NC(=O)Nc1ccc(F)cc1 (centres undefined)	.	101	93	-3
COCC(C)Nc1nc(-c2ccc(Cl)cc2)cs1 (centres undefined)	.	77	98	-18
CCCCC(CC)CNC(=O)C1CCN(S(=O)(=O)c2cccc3nsnc23)CC1 (centres undefined)	97	97	105	-21
Cc1cc(NC(=O)COc2ccc(Cl)cc2)n(-c2nc3c(c(=O)[nH]2)CCC3)n1	99	.	.	-14
CCN(CC)S(=O)(=O)c1ccc(NC(=O)c2cc3ccc4cccnc4c3[nH]2)cc1	101	90	88	.
Cc1ccc(C(=O)O)cc1NC1(c2ccccc2)C(=O)c2ccccc2C1=O	98	106	99	.
Cc1ccc(-c2ccc(=O)n(CC(=O)Nc3ccc(C(C)C)cc3)n2)cc1	98	95	83	-32
CCOC(=O)c1ccc(/C=N/O)[n+](Cc2ccccc2)c1	102	114	83	.
CCC(C)NC(=O)Cn1c(=O)n(-c2ccc(OC)c(OC)c2)c(=O)c2ccccc21 (centres undefined)	105	108	90	3
COc1ccc(C(=O)Nc2ccccc2C(=O)OCc2cc(=O)n3c4c(sc3n2)CCCC4)cc1	98	88	95	.
Cc1ccc2nc(-c3ccc(NC(=S)NC(=O)Cc4ccccc4)cc3O)oc2c1	111	95	105	-2
NC(=O)COC(=O)c1cccc(C(F)(F)F)c1	.	105	100	-23
CC1CCC2(CC1)NC(=O)c1ccccc1N2C (centres undefined)	.	69	82	-31
O=C(Cn1c(=O)n(Cc2nc(-c3ccccc3)no2)c(=O)c2cc3c(cc21)OCO3)Nc1ccc(Cl)cc1	105	78	72	.
COC(=O)C1=C(N)OC2=C(C(=O)CC(c3ccccc3)C2)C1c1cccc(OC)c1OC (centres undefined)	103	.	.	2
COc1cc(NC(=O)c2c(-c3ccccc3)nnc3ccccc23)cc(OC)c1	99	94	83	-13
O=C(COc1ccc(Cl)cc1Cl)Sc1nc2ccccc2o1	.	93	96	-15
Cc1cc(C)nc(NC(c2ccc3c(c2)OCO3)c2cc(C)sc2NC(=O)c2ccccc2)n1 (centres undefined)	110	.	.	1

An excerpt from above in order of SMILES length, highest first.
SMILES	GIV-Gai inh	Sa growth inh	Sa growth inh second temp	HCMV NEC inh
O=C(Cn1c(=O)n(Cc2nc(-c3ccccc3)no2)c(=O)c2cc3c(cc21)OCO3)Nc1ccc(Cl)cc1	105	78	72	.
COc1ccc(C(=O)Nc2ccccc2C(=O)OCc2cc(=O)n3c4c(sc3n2)CCCC4)cc1	98	88	95	.
Cc1cc(C)nc(NC(c2ccc3c(c2)OCO3)c2cc(C)sc2NC(=O)c2ccccc2)n1 (centres undefined)	110	.	.	1
Cc1ccc2nc(-c3ccc(NC(=S)NC(=O)Cc4ccccc4)cc3O)oc2c1	111	95	105	-2
COc1cc(NC(=O)c2c(-c3ccccc3)nnc3ccccc23)cc(OC)c1	99	94	83	-13
CC1CCC2(CC1)NC(=O)c1ccccc1N2C (centres undefined)	.	69	82	-31

Structures shown so far containing a tert-butyl group:
SMILES	GIV-Gai inh	Sa growth inh	Sa growth inh second temp	HCMV NEC inh
CC(C)(C)N(N)C(=S)NCc1ccc(F)cc1	.	86	78	-7
CC(C)(C)n1nc2c(c1NC(=O)C1CC1)CSC2	99	98	79	-8

(cont.)
SMILES	GIV-Gai inh	Sa growth inh	Sa growth inh second temp	HCMV NEC inh
Cc1noc(NS(=O)(=O)c2ccc(NC(=O)NC(C)(C(F)(F)F)C(F)(F)F)cc2)c1C	105	73	75	-33
Cc1ccc(Cn2nnc3c(=O)[nH]c(C4CCN(S(=O)(=O)/C=C/c5ccccc5)CC4)nc32)cc1	101	113	67	-1
COc1ccc(Cn2c(C)c(C3=CCN(S(=O)(=O)c4cn(C)cn4)CC3)c3ccccc32)cc1	123	.	.	-28
CCCOc1ccc(C(=O)Nc2ccc(NC(=O)c3ccccc3)c(Br)c2)cc1	109	103	100	8
CCCc1nc2ccccc2n1CC(=O)N(CCC#N)c1ccccc1	.	107	90	-23
CC1=C(C(=O)O)N2C(=O)[C@@H](NC(=O)C(N)C3=CCC=CC3)[C@H]2SC1 (some centres undefined)	102	.	.	-20
CCCNC(=O)CSc1nc2nc(C)c(Cc3ccccc3C)c(C)n2n1	99	96	89	-3
CCOCCOC(=O)C1=C(C)NC2=C(C(=O)CC(c3ccc(OC)cc3)C2)C1c1ccc(N(CC)CC)cc1 (centres undefined)	106	.	.	3
CCCc1c(OCCCOc2ccc(OCC(=O)O)cc2)ccc(C(C)=O)c1O	101	.	.	-81
Cc1cc(C)c(NC(=O)c2c(C)nn(-c3ccc(F)cc3)c2-n2cccc2)c(C)c1	106	112	91	.
Cc1cc(-c2ccc(Br)cc2)n2nc(C)cc2n1	104	.	.	-75
COc1ccc(NC(=O)C(NC(=O)c2ccccc2NC(=O)c2ccco2)C(C)C)cc1 (centres undefined)	104	92	72	-38
O=c1nc(Nc2ccc(OC(F)(F)F)cc2)c2ccccc2o1	98	98	101	-5
CCOc1ccccc1NCc1nc2nc(C(C)C)cc(=O)n2[nH]1	106	.	.	-34
Cc1cc(=O)[nH]c(NNS(=O)(=O)c2ccc3ccccc3c2)n1	.	104	85	-10
Cc1cc(C)c2c(=O)c(C#N)coc2c1	128	98	87	-14
CCOC(=O)c1cnn2c1nc(Sc1ccc(C)cc1)c1ccccc12	102	99	86	-25
CCCC(=O)Nc1nnc2n1CCS2	103	126	85	.
CCOC(=O)c1ccc(-c2coc3cc(O)c(CC)cc3c2=O)o1	101	89	96	-26&2
COc1ccc(CNC(=O)c2cnc(N(C)C)nc2C)cc1	99	.	.	-17
COc1ccc(NC(=O)C2(N(Cc3ccccc3)C(=O)Cc3nc(N)n[nH]3)CCCCC2)cc1	.	92	92	-4
CC(C)(C)c1cc2nc[nH]c(=O)c2s1	106	104	91	-3
Cc1noc(-c2ccc(N3CCC(C)CC3)c([N+](=O)[O-])c2)n1	100	102	91	-56
O=C(O)C1CCN(S(=O)(=O)c2cccc3nsnc23)CC1	100&101	99&92	91&93	-118&-115
CC(C)C(NS(=O)(=O)c1cccs1)C(=O)NC1CCCCCC1 (centres undefined)	109	108	88	.
COc1ccc(OCc2nc(-c3ccc(S(=O)(=O)N4CCOCC4)cc3)no2)cc1	107	.	.	-20
COc1cccc(C2Nc3ccccc3-n3c(-c4ccccc4)c4c(=O)n(C)c(=O)n(C)c4c32)c1O (centres undefined)	105	.	.	-20
CCOC(=O)c1oc2ccc(S(=O)(=O)N(C)CCc3noc(C4CCCCC4)n3)cc2c1C	103	.	.	14
CCn1c(=S)[nH]c2sc3c(c2c1=O)CCC3	111	81	44	-13
O=C(NC(NCc1ccccc1Cl)(C(F)(F)F)C(F)(F)F)c1ccccc1	99	120	80	.
CCC(=O)Nc1ccc(C(=O)N(CC)C2CCCCC2)cc1	106	120	98	-12
COc1ccc(-n2nc(C(=O)N3CCCC3)nc2-c2ccccc2)cc1	107	.	.	10
COCCNC(=O)C1CC(c2c(F)cccc2Cl)=NO1 (centres undefined)	100	99	90	-17
CC(=O)NCc1cc2cc(Cl)ccc2n1C	101	97	87	.
Cc1cccc(C2N3CC4(C(C)C)CN2CC(C(C)C)(C3)C4=O)c1 (centres undefined)	103	104	95	.
CCCn1c(N)c(C(=O)COC(=O)c2ccc(C)c(NC(=O)c3ccco3)c2)c(=O)[nH]c1=O	.	90	91	-2
O=c1[nH]c(CN2CCSc3ccccc32)nc2ccccc12	.	87	101	-6
COc1ccccc1OC(C)C(=O)NN (centres undefined)	104	88	102	.
CC(C)(C)NC(=O)c1cc(Br)cc2c1OCC2	104	84	85	-15
Cc1cc(C(=O)C(C)Sc2n[nH]c(N)n2)c(C)n1-c1ccccc1 (centres undefined)	.	101	98	0
CCN(CC)c1ncnc2ccsc12	106	102	92	-1
CCCc1ccc(S(=O)(=O)N2CCC(N3CCN(Cc4ccccc4)C(=O)C3=O)CC2)cc1	95	.	.	2
N#Cc1c[nH]n2c(NC3CCCCC3)c(-c3ccc(F)cc3)nc12	102	87	89	-6
CC(Sc1nc2sc3c(c2c(=O)n1C)CCC3)C(=O)Nc1ccc(Cl)cn1 (centres undefined)	.	98	91	-29
COc1cc(Nc2nc3c(S(=O)(=O)c4cccc(Cl)c4)nnn3c3ccsc23)cc(OC)c1	106	106	98	.
COc1cccc(CNC(=O)N2CCC(CN3CCC(C)CC3)CC2)c1	100	102	87	.
CCC1(C)CC(C(=O)c2ccc(OC)cc2)CCO1 (centres undefined)	104	119	82	-11
